E coli growth = E. coli growth inhibition. Escherichia coli growth, OD600, 23 h; active compounds read low. OD600 absorbance (concentration not given with the values). 0.21% of 330,000 active;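 active = OD600 absorbance below the run mean of sample wells minus 3.6 SD, in any replicate, cut at about 0.56 in these data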;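 note: stock transfer was 300 nL into about 60 µL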
Vif TR-FRET = HIV-1 Vif–A3G interaction blockers – biochemical, TR-FRET, GST-Vif 1-94, biotin-A3G peptide, dose response retest, primary screen (AID 1117319) | TR-FRET GST-Vif / biotin-A3G peptide binding; higher % means a stronger effect; test concentration not given here; strong numbers were not always called active | one-dose inhibition, %; IC50 in µM for titrated hits | 0.57% of 260,000 active;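 active = above the screen mean plus three standard deviations and confirmed in dose response; inconclusive = results disagree or hit not tested in dose response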;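 note: Vif residues 1-94 fused to GST binding biotinylated APOBEC3G peptide 110-148; 0% = full assay without inhibitor and 100% = GST in place of GST-Vif; retest series ran down from 100 µM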
Starred values were filed as active, the others as inactive; ? = inconclusive; · = not tested or not shown; & = joins results of further samples. Not all compounds are listed, so the mix of outcomes need not match the whole.

SMILES	E coli growth	Vif TR-FRET
CC(C)C(C(=O)N1CCN(C(=O)OC(C)(C)C)CC1)n1cc(CCO)nn1 (stereo not given)	0.7	·
O=C(C=Cc1ccc(O)cc1)OCc1occc(=O)c1OC1OC(CO)C(O)C(O)C1O (stereo not given)	0.69	·
CC1CC=CC2C1C(=O)N(Cc1ccccc1)C2c1ccc(-c2ccoc2)cc1F (stereo not given)	0.62	·
COc1cc(CCN2C(=O)NC(CCc3ccccc3)C(C(C)=O)=C2C)cc(OC)c1OC (stereo not given)	0.71	·
O=C(NC1CCC(=O)N(C(CSc2ccccc2)Cc2ccccc2)CC1)OCc1ccccc1 (stereo not given)	0.71	·
CCC(=O)O[C@]1(C(=O)CCl)C(C)CC2C3CCC4=CC(=O)C=C[C@]4(C)[C@@]3(F)C(O)C[C@@]21C (stereo not given in full)	0.71	·
O=C1CCCCC=CCC(CC(=O)N(CCO)Cc2ccccc2)C(=O)NC(Cc2ccccc2)CO1 (stereo not given)	0.7	·
CCCCCCNC(=O)N1CC=CC(c2ccc(OC)cc2)N(Cc2ccc(F)cc2)C(=O)C1 (stereo not given)	0.66	·
Cc1ccccc1COCC(CC(C)C)N1CCN(C(=O)c2cccc(C(F)(F)F)c2)CCC1=O (stereo not given)	0.7	·
COc1ccc(-c2ccc(C3C4C=CCC[C@@]4(C)C(=O)N3Cc3ccccc3)c(F)c2)cc1OC (stereo not given in full)	0.69	·
O=S1(=O)CCOCC(CC2CCCCC2)N1Cc1cccc(Cl)c1 (stereo not given)	0.71	·
C#CCOCCOCCOCCNc1nc(N2CCN(C(=O)C(CCCCN)n3cc(CCC(=O)O)nn3)CC2)nc(N2CCN(C(=O)C(C(C)CC)n3cc(CCCN=C(N)N)nn3)CC2)n1 (stereo not given)	0.69	·

Fetched by compound from above, 3 records:
SMILES	E coli growth	Vif TR-FRET
CC1CC=CC2C1C(=O)N(Cc1ccccc1)C2c1ccc(-c2ccoc2)cc1F (stereo not given)	0.62	·
COc1cc(CCN2C(=O)NC(CCc3ccccc3)C(C(C)=O)=C2C)cc(OC)c1OC (stereo not given)	0.71	·
Cc1ccccc1COCC(CC(C)C)N1CCN(C(=O)c2cccc(C(F)(F)F)c2)CCC1=O (stereo not given)	0.7	·

The main list resumes, starting 2 compounds before the break.
SMILES	E coli growth	Vif TR-FRET
O=S1(=O)CCOCC(CC2CCCCC2)N1Cc1cccc(Cl)c1 (stereo not given)	0.71	·
C#CCOCCOCCOCCNc1nc(N2CCN(C(=O)C(CCCCN)n3cc(CCC(=O)O)nn3)CC2)nc(N2CCN(C(=O)C(C(C)CC)n3cc(CCCN=C(N)N)nn3)CC2)n1 (stereo not given)	0.69	·
NCCCCC1CNC(=O)C(=O)N1CCc1cccc(F)c1 (stereo not given)	0.67	·
O=C(O)CCC(=O)N1CCCC1C(=O)O (stereo not given)	0.65	·
C(=Cc1ccccc1)C=NNc1nc(N2CCOCC2)nc(N2CCOCC2)n1	0.68	·
CCC(C)C(NC(=O)C(=Cc1ccccc1)NC(=O)c1ccc(OC)cc1)C(=O)O (stereo not given)	0.72	·
COC(=O)c1ccc(C(NC(=O)OCc2ccccc2)C(F)=CC(C)C(=O)O)cc1 (stereo not given)	0.68	·
CC[C@@]12C(=O)N(c3cccc(Br)c3)C(=O)N1C(c1ccc(Br)cc1)C1C(=O)N(C(C)(C)C)C(=O)C12 (stereo not given in full)	0.72	·
NC(=O)c1ccc(NC(=O)COC(=O)C=Cc2cccs2)cc1	0.74	·
CC[C@@]12C(=O)N(c3cccc(Br)c3)C(=O)N1C(c1ccc(Cl)cc1)C1C(=O)N(C3CCCCC3)C(=O)C12 (stereo not given in full)	0.71	·
CCCCCCCC(=O)OCC(=O)[C@@]1(O)CCC2C3CCC4=CC(=O)CC[C@]4(C)C3C(O)C[C@@]21C (stereo not given in full)	0.67	·
COc1ccc(C2C3C(=O)N(C(C)(C)C)C(=O)C3[C@]3(Cc4ccccc4)C(=O)N(c4ccccc4)C(=O)N23)cc1 (stereo not given in full)	0.72	·
CCOC1OC(C(=O)O)=CC(c2coc3ccccc3c2=O)C1CCCO (stereo not given)	0.72&0.7	·
Cc1ccc(C2C(=C(O)c3ccc(Br)cc3)C(=O)C(=O)N2Cc2ccco2)o1 (stereo not given)	0.72	·

In a second layout: two of the compounds above.
SMILES: COc1cc(CCN2C(=O)NC(CCc3ccccc3)C(C(C)=O)=C2C)cc(OC)c1OC (stereo not given)
- E coli growth = 0.71
- Vif TR-FRET = ·

SMILES: O=C(NC1CCC(=O)N(C(CSc2ccccc2)Cc2ccccc2)CC1)OCc1ccccc1 (stereo not given)
- E coli growth = 0.71
- Vif TR-FRET = ·

Further records follow.
SMILES	E coli growth	Vif TR-FRET
O=C1C=C(c2cccc(Cl)c2O)CC(c2ccc(Cl)cc2)C1 (stereo not given)	0.68	·
COc1ccc(C2CC(=O)C=C(c3ccc(Br)c4ccccc34)C2)cc1 (stereo not given)	0.7	·
NC(Cc1cccc2ccccc12)=NOC(=O)c1ccc2c(c1)OCO2	0.69	·
COC(=O)C1=C(C)N(Cc2ccccc2)C(=NCCCOC(C)C)NC1c1ccccc1 (stereo not given)	0.69	·
CN(C)c1ccc(NC(=S)NC(=O)C=Cc2ccco2)cc1	0.77	·
CC1CN=C(Nc2ccccc2)N1CC1CCC1 (stereo not given)	0.69	·
CC1CN(C(C)CO)C(=O)c2cccc(NC(=O)Nc3ccc(C(F)(F)F)cc3)c2OC1CN(C)Cc1ccc(Cl)c(Cl)c1 (stereo not given)	0.75	·
CCOC(=O)C1=CCC(c2cc(OC)c(OC)c(OC)c2)N(S(=O)(=O)c2ccc(C)cc2)C1C(=O)OCC (stereo not given)	0.7	·
C=CC1=C(C(=O)O)N2C(=O)C(NC(=O)C(=NOCC(=O)O)c3csc(N)n3)C2SC1 (stereo not given)	0.062*	·
CC(=O)c1ccc(-c2cc(C3C4C=CCC(C)C4C(=O)N3Cc3ccccc3)ccc2F)cc1 (stereo not given)	0.72	·
S=C1NCC(Cc2ccccc2)N1CCCCC1CCCCC1 (stereo not given)	0.68	·
COc1ccc2c(c1)C1C(CO2)C(c2ccccc2)[C@]2(C)C(=O)Nc3cc(Cl)ccc3C(=O)N12 (stereo not given in full)	0.71	·

Compound profiles, from the list above. Order of screens: E coli growth | Vif TR-FRET
O=C1C=C(c2cccc(Cl)c2O)CC(c2ccc(Cl)cc2)C1 (stereo not given) in the list: 0.68 | ·
COc1ccc(C2CC(=O)C=C(c3ccc(Br)c4ccccc34)C2)cc1 (stereo not given) in the list: 0.7 | ·

Next section
SMILES	E coli growth	Vif TR-FRET
COCCNC(=O)C(C#N)=Cc1ccc(-c2ccc(OC)cc2[N+](=O)[O-])o1	0.7	·
CN1C(=CC=NNC(=O)c2ccccc2Br)C(C)(C)c2ccccc21	0.68	·
CCC(C)C1NC(=O)C(CC(C)C)NC(=O)C(Cc2ccccc2)NC(=O)C(Cc2ccccc2)NC(=O)C2CCCN2C(=O)C2CCCN2C(=O)C(C(C)C)NC(=O)C(CC(C)C)NC(=O)C(C(C)CC)NC1=O (stereo not given)	0.71	·
O=C1CSC(c2ccccc2)N1c1nnc(C23CC4CC(CC(C4)C2)C3)s1 (stereo not given)	·	-4%
O=C(O[C@@H]1Cc2c(O)cc(O)cc2O[C@@H]1c1cc(O)c(O)c(O)c1)c1cc(O)c(O)c(O)c1	·	1%
O=C(c1ccco1)N1CCN(c2ncnc3c2[nH]c2ccccc23)CC1	·	21%
Cc1ccc(Nc2nc(N)nc(CN3CCN(C)CC3)n2)cc1C	·	5%
COc1ccc2c(c1)O[C@@H](c1ccc3c(c1)OCO3)[C@H](OC(=O)Nc1cc(OC)c(OC)c(OC)c1)C2=O	·	67µM*
CC1C/C=C/C=C/C=C/C=C/C(O[C@@H]2O[C@H](C)[C@@H](O)[C@H](N)[C@@H]2O)CC2OC(O)(CC(O)CC3OC3/C=C/C(=O)O1)CC(O)C2C(=O)O (stereo not given in full)	·	-4%
CCOC(=O)c1c2ccc(OCC(=O)N/N=C/c3ccc(Cl)cc3)cc2n2ccccc12	·	1%
Cc1ccc(C(=O)C2=C(O)C(=O)N(CCN3CCOCC3)C2c2ccccn2)o1 (stereo not given)	·	10%
COc1ccc(CNc2nc3c(c(C(F)(F)F)n2)CCCCC3)cc1	·	-1%
Cc1nc(NC2=NCN(C3CCCCC3C)CN2)nc2ccccc12 (stereo not given)	·	-9%
O=C(OC1CCCCC1)c1ccc2c(c1)C1C=CCC1C(C(=O)O)N2 (stereo not given)	·	0.51µM*
COc1ccc(O[C@H]2C=C[C@@H](c3ccccc3)O[C@@H]2CO/N=C(\C)CCN2CCCCc3nc(C)c(C)cc32)cc1	·	6%
COC(=O)C(CC(=O)c1ccc(Br)cc1)n1ccnc1 (stereo not given)	·	-11%
CCSc1nnc2n(N)c(=O)c3ccccc3n12	·	-3%
CCN1CCN(CCCNC(=O)C(NC(=O)C2CCC(C)CC2)C(C)C)CC1 (stereo not given)	·	-6%
CCCCc1c(O)nc(SCCC(=O)O)[nH]c1=O	·	-1%
C=C1[C@@H](C)C2[C@H](Cc3ccccc3)NC(=O)[C@]23OC(=O)CC[C@H](O)CCC[C@H](C)C/C=C/[C@H]3[C@@H]1O (stereo not given in full)	·	6%
O=c1c(O)c(-c2ccc(O)cc2O)oc2cc(O)cc(O)c12	·	?
CC(C)CN1C(=O)/C(=C/c2c(N3CCc4ccccc4C3)nc3ccccn3c2=O)SC1=S	·	-1%
CN1C(=O)/C(=C\c2ccccc2)Sc2ccc(C(=O)N3CCN(c4ccccn4)CC3)cc21	·	?
CC(C)c1ccc(N2CCN(C(=O)c3ccccc3NC(=O)/C=C(\C(=O)O)c3ccccc3)CC2)cc1	·	3%
N#CC(C(=O)NC1CCCCC1)c1nc2ccccc2nc1N1CCN(c2ccc(F)cc2)CC1 (stereo not given)	·	-7%
COC(=O)[C@@]1(Cc2ccc(OC)cc2)[C@H]2c3cc(C(=O)N4CCCC4)n(CCN4CCNC4=O)c3C[C@H]2CN1C(=O)c1ccccc1	·	?
Cc1ccc(SCC(=O)NC(=O)NCc2ccco2)cc1C	·	20%
COc1ccc(-c2nnc3n2C(C)(C)Cc2cc(OC)c(OC)cc2-3)cc1	·	2%
CN1CCN(CC(=O)Nc2sc3c(c2C#N)CCC(C(C)(C)C)C3)CC1 (stereo not given)	·	2%
CCN1CCN(Cc2nc3c(c(=O)n(C)c(=O)n3C)n2Cc2ccccc2Cl)CC1	·	?
COc1cccc(Cn2c(C3CC3)nc3ccc(NC(=O)c4ccco4)cc3c2=O)c1	·	-4%
CCOC(=O)c1c(NC(=O)/C=C/c2ccc3c(c2)OCO3)sc(C)c1C	·	-6%
O=C(Nc1ccccc1Cl)c1cccc(NS(=O)(=O)c2ccccc2)c1	·	2%
Cc1nc2ccccc2c2oc(C(=O)N3CCc4ccccc43)cc12	·	-20%
O=C(O)C1CC=CCC1C(=O)Nc1cccc(Cl)c1Cl (stereo not given)	·	19%
O=c1[nH]c2cc3c(cc2cc1CN(CCc1ccccc1)Cc1nnnn1C1CCCC1)OCCO3	·	?
CCOC(=O)c1nnn(-c2nc(OC)nc(N3CCCCC3)n2)c1-c1ccccc1	·	-4%
COCC(=O)Nc1ccc(S(=O)(=O)Nc2ncccn2)cc1	·	-7%
Cc1ccc2c(c1)C(c1ccncc1)=NNC(c1ccc(C(C)C)cc1)=N2	·	10%
Cc1cc(C)nc(-n2nc(C)c3c(C)c(C)c(C)nc32)n1	·	0%
CC1C(=O)CC(c2ccco2)NC1c1ccco1 (stereo not given)	·	2%
COc1cc(N2CCCC2)c(OC)cc1/C=c1/sc2nc3ccccc3n2c1=O	·	19%
O=C(CSc1ncnc2c1cnn2CCc1ccccc1)Nc1ccc(F)cc1	·	0%
C#CCOCCOCCOCCNc1nc(N2CCN(C(=O)[C@H](CCCCN)n3cc(C(N)COC(=O)C(F)(F)F)nn3)CC2)nc(N2CCN(C(=O)[C@H](CCCCN)n3cc(C(N)CC(C)C)nn3)CC2)n1 (stereo not given in full)	·	1%
Cc1cc(C)n2c(SCC(=O)Nc3ccc(Cl)cn3)nnc2n1	·	3%
O=C(O)CNS(=O)(=O)c1ccc(-c2ccccc2)cc1	·	-1%
Fc1ccccc1Nc1nc2c(s1)CCc1ccccc1-2	·	19%
Cc1ccc2nc(-c3ccc(N4C(=O)CC(N5CCCC(C)C5)C4=O)cc3)sc2c1 (stereo not given)	·	25%

Screening results (PubChem)
